KCNQ2 block = KCNQ2 potassium channel inhibitors, primary screen, cell-based, CHO-K1, FluxOR thallium flux, B-score (AID 2156); Potassium voltage-gated channel subfamily KQT member 2 (Rattus norvegicus), O88943; B-score at 10 µM; 310,000 tested, 1.1% active; 20 min; active compounds read low; only compounds with negative scores are shown here; some inactives read as strong as hits;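 active = fluorescence ratio B-score at most minus 3 library SDs, with starting brightness B-score within 2 library SDs, cut at about -5.5 in these data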
Target sequence (O88943 whole entry, looked up): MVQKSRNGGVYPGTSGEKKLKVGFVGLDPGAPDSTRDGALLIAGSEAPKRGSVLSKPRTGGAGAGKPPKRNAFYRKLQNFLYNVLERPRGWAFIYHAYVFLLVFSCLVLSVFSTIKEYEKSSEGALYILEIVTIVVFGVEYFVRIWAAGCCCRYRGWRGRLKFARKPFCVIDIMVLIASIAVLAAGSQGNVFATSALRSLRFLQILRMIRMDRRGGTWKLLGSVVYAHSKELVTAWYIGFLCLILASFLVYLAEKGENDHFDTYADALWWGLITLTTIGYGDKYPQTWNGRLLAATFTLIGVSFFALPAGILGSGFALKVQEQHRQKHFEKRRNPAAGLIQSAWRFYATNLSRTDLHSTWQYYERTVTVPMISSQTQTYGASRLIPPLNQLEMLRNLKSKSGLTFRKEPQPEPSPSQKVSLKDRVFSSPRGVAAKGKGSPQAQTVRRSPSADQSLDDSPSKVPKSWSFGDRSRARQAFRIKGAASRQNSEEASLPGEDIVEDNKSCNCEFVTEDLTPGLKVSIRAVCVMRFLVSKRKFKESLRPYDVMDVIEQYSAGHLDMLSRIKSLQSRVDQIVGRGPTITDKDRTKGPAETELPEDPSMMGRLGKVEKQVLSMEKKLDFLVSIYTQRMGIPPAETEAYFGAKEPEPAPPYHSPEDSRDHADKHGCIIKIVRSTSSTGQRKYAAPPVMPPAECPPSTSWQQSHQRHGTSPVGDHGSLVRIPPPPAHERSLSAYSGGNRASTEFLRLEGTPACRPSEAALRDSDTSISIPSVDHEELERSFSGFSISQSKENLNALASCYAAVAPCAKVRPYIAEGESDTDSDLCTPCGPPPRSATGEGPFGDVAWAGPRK
KCNQ2 block baseline = recorded beside KCNQ2 block, whose call it bears; B-score; measured here: initial fluorescence intensity artifact check;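 brightness before thallium and not channel activity; 0 = typical well and far values either way flag optical interference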
Numbers without * were called inactive; i = inactive.

Preview:
Fields – KCNQ2 block	KCNQ2 block baseline
Cc1ccc2occ(C3NC(C(=O)O)CS3)c(=O)c2c1 (configuration not stated)
    i	-1.5
O=C(NCCCO)C(=O)NCC1OCCCN1S(=O)(=O)c1cccs1 (configuration not stated)
    i	-0.21
CCCCC1C(=O)CC[C@H]2[C@@H]1CC(=O)[C@@H]2C/C=C\CCCC(=O)O (some centres not stated)
    i	-0.02
O=C(O)CC(NC(=O)Cc1ccccc1)c1cc([N+](=O)[O-])ccc1Cl (configuration not stated)
    i	-0.06
C/C(=N\Nc1nc(C(C)(C)C)cs1)c1ccc(O)cc1
    i	-2.5
CCCCC(=O)NC(c1ccccc1Cl)c1c(O)ccc2ccccc12 (configuration not stated)
    i	2.2
CNC(=O)C1CCN(S(=O)(=O)c2c(C)noc2/C=C/c2cccc(C)c2)CC1
    i	0.32

The whole of this part, previewed entries included:
Fields – KCNQ2 block	KCNQ2 block baseline
Cc1ccc2occ(C3NC(C(=O)O)CS3)c(=O)c2c1 (configuration not stated)
    i	-1.5
O=C(NCCCO)C(=O)NCC1OCCCN1S(=O)(=O)c1cccs1 (configuration not stated)
    i	-0.21
CCCCC1C(=O)CC[C@H]2[C@@H]1CC(=O)[C@@H]2C/C=C\CCCC(=O)O (some centres not stated)
    i	-0.02
O=C(O)CC(NC(=O)Cc1ccccc1)c1cc([N+](=O)[O-])ccc1Cl (configuration not stated)
    i	-0.06
C/C(=N\Nc1nc(C(C)(C)C)cs1)c1ccc(O)cc1
    i	-2.5
CCCCC(=O)NC(c1ccccc1Cl)c1c(O)ccc2ccccc12 (configuration not stated)
    i	2.2
CNC(=O)C1CCN(S(=O)(=O)c2c(C)noc2/C=C/c2cccc(C)c2)CC1
    i	0.32
COc1cc(Cl)c(CN2CCCC(CO)(Cc3ccccc3F)C2)cc1OC (configuration not stated)
    i	-1.2
Cc1cc(C(=O)OCn2nnc3ccccc3c2=O)c(C)o1
    i	1.3
COc1cccc(-c2nc(CS(=O)(=O)CC(=O)NCCc3ccc(C)cc3)c(C)o2)c1
    i	0.55
Cc1nn(-c2ccccc2)c(NC(=O)c2cccs2)c(-c2ccc(Cl)cc2)c1=O
    i	-0.51
S=c1[nH]nc(Cc2cccc3ccccc23)n1-c1ccccc1
    i	1.5
N#CC1(c2ccccc2)CCCN1C(=O)c1ccccc1Br (configuration not stated)
    i	1
COc1ccccc1NC(=O)CS(=O)(=O)c1cn(CC(=O)N(C(C)C)C(C)C)c2ccccc12
    i	2.6
NC(=O)C1(c2ccccc2)CCCN1C(=O)c1ccc(Br)cc1 (configuration not stated)
    i	0.88
Cc1ccccc1OCc1nc2ccccc2c(=O)n1/N=C/c1cccc([N+](=O)[O-])c1
    -6.2*	-0.59*
O=C(NCc1cccc(Cl)c1)C1CCC(=O)N(CC2CCCCC2)C1 (configuration not stated)
    i	0.36
O=C(COC(=O)C1CC1)Nc1ncc(Cl)cc1Cl
    i	1.4
COc1ccc(C(=O)N2CCNC(=O)C2CC(=O)Nc2cccc(Cl)c2Cl)cc1 (configuration not stated)
    i	-0.69
COc1ccc(OC)c(C2CC(c3ccc(NS(C)(=O)=O)cc3)=NN2C(=O)c2ccccc2)c1 (configuration not stated)
    i	3.2
Cn1c(=O)[nH]c(=O)c2c1nc(Br)n2CCCCSc1nc2ccccc2o1
    i	-0.05
C=CCn1c(O)c(N=NC(=O)CNC(=O)/C=C/c2ccco2)c2ccccc21
    i	-1.6
COc1ccc(-c2c([C@H]3[C@H]4C=CC[C@@H](C)[C@@H]4C(=O)N3Cc3ccccc3)ccc3ccccc23)cc1
    i	0.47
CCCC(C)NC(=O)COC(=O)c1ccc(Cl)c(S(N)(=O)=O)c1 (configuration not stated)
    i	-0.27
COc1ccc(OCCCn2ccnc2)cc1
    i	2.2
CCn1c(CNC(=O)c2ccc3c(c2)OCO3)nnc1SCC(=O)Nc1ccccc1F
    i	-0.01
O=C(NNc1cc(Cl)ccc1Cl)c1c(F)cccc1Cl
    i	1
COc1ccc(N2CCN(CC(=O)N3N=CCC3c3ccccc3)CC2)cc1 (configuration not stated)
    i	-0.01
CCc1cc2ccc(OC)cc2nc1SCC(=O)NNC(=O)c1ccco1
    i	-0.03
Cc1cccc(N=Nc2cn[nH]c2-c2ccco2)c1
    i	0.14
O=C(O)c1cccc([N+](=O)[O-])c1C(=O)Nc1ccc2ccccc2c1
    i	0.17
O=C(Nc1cccc2ncccc12)c1cccnc1
    i	1.1
O=C(c1ccco1)N1CCN(Cc2c(Cl)cccc2Cl)CC1
    i	1.8
O=S1(=O)CC(O)C(Nc2ccc(Cl)cc2)C1 (configuration not stated)
    i	-0.01
COc1ccc(-n2cnnc2SCC(=O)Nc2cc(C)on2)cc1
    i	0.13
CN1CCN(S(=O)(=O)c2ccc(NC(=S)NC(=O)c3ccccc3)cc2)CC1
    i	1.9
N#Cc1ccc(COC(=O)c2ccc3c(c2)OCO3)cc1
    i	0.2
COc1cc(NC(=O)COC(C)=O)cc(OC)c1OC
    i	0.63
Cc1cc(C)c(S(=O)(=O)N/N=C/c2ccc3c(c2)OCO3)c(C)c1
    i	2.8
C=CCOC(=O)C1=C[C@H](c2cn(C(C)=O)c3ccccc23)C[C@H](OCc2ccc(CO)cc2)O1
    i	-0.44
CCOC(=O)c1sc(Nc2nc3cc4c(cc3s2)OCO4)cc1C
    i	-2.4
O=C1N(Cc2cccc(Cl)c2)C[C@@H]2C[C@@H](c3ccsc3)N3CCC[C@@]123
    i	0.27
CC(=O)NC(C1C(=O)CC(C)(C)CC1=O)(C(F)(F)F)C(F)(F)F
    i	-0.01
C/C(CC(=O)NC1CCCCC1)=N\NC(=O)c1ccccc1C
    i	-0.06
O=C(CCC(=O)Nc1ccc(Cl)cc1)N/N=C/c1ccc2c(c1)OCO2
    i	3.1
O=C(Nc1ccccc1N1CCCCC1)C1CCN(S(=O)(=O)c2cccc(C(F)(F)F)c2)CC1
    -6.9*	-0.96*
Cc1cc(C(=O)Nc2ccccc2Cc2ccccc2)no1
    i	-2.2
O=C(c1ccccc1F)N(NC(=O)C(O)(c1ccccc1)c1ccccc1)c1ccccc1
    i	1.3
COc1ccc(NC(=O)c2ccccc2-c2ccccc2)c(C)c1
    i	0.06
CN(CC(=O)Nc1cccc(F)c1)C(=O)c1ccc(-c2ccc(Cl)cc2)o1
    i	-0.18
CCN1C(=O)CSc2ccc(C(=O)NCc3ccccc3)cc21
    i	1.7
C/C(=N/NC(=O)c1cccc(Br)c1)C1CC2CCC1C2 (configuration not stated)
    i	-0.81
CC(C)CC(=O)C1CCCN(C(=O)c2ccc3oc(Cc4ccccc4)nc3c2)C1 (configuration not stated)
    i	-0.04
Nc1ccc(C2(c3ccc(N)cc3)c3ccccc3C(=O)c3ccccc32)cc1
    i	-0.01
Cc1ccc(CNC(=O)C2CC(c3ccccc3C(F)(F)F)=NO2)cc1 (configuration not stated)
    i	-2
COc1ccc(NC(=O)CSc2cn[nH]n2)c(OC)c1
    i	5.4
CCn1c(CSc2nc3ccccc3s2)nnc1SCC(N)=O
    i	0.57
C=CCNc1nc(C(=O)OCC(=O)c2ccc(Cl)cc2)cs1
    i	-1.6
CCN(CC)C(=S)NC(=O)c1cccnc1
    i	-0.32
CC(C)(C)NS(=O)(=O)c1ccc(NC(=O)c2cc(-c3ccccc3)nc3ccccc23)cc1
    i	-1.3

More compounds follow.
Fields – KCNQ2 block	KCNQ2 block baseline
CCOc1ccc(Nc2cc(C)nc3ccc(C)cc23)cc1
    i	-0.96
COc1ccc(CCNC(=O)C(=O)NCc2ccccn2)cc1
    i	-0.02
O=C(Nc1cccc(OCC(=O)N2CCOCC2)c1)c1cccc(Cl)c1
    i	-0.48
Clc1ccc(-c2noc(CN3CCCC3)n2)cc1
    i	1.8
N#Cc1cccc(NC(=O)N2CCC(c3nc4c(nnn4Cc4cccc(Cl)c4)c(=O)[nH]3)CC2)c1
    i	1.2
CC(Nc1ncnc2sccc12)c1ccccc1 (configuration not stated)
    i	-1.2
Cc1ccccc1-c1nnc(SCC(=O)NCc2ccc3c(c2)OCO3)n1C
    i	2.2
C=CCSc1nnc(-c2sc(-c3ccccc3)nc2C)n1C
    i	0.07
CCOC(=O)/C=C1\CN(C(C)c2ccccc2)S(=O)(=O)c2ccccc21 (configuration not stated)
    i	-0.74
CCOC(=O)CSc1nnc(CNc2ccccc2Cl)n1-c1ccccc1
    -6.7*	0.52*
Cc1c(Cl)cccc1Nc1ccccc1C(=O)O
    i	-0.26
O=C(COC(=O)C1(c2ccccc2F)CCCC1)N1CCc2ccccc21
    i	1.5
O=C(N/N=C/c1ccco1)c1ccc(NC(=O)C2CCCCC2)cc1
    i	-0.68
CN1CCN(/N=C/c2ccc(-c3ccccc3)cc2)CC1
    i	0.08
O=C(Nc1ccc(Br)cc1)N1CCCC(O)C1 (configuration not stated)
    i	2.3
O=S(=O)(Nc1cccnc1)c1ccccc1
    i	-0.68
CCOC(=O)C1CCCN(S(=O)(=O)c2ccc(-c3cc(C)no3)s2)C1 (configuration not stated)
    i	0.3
CCOC(=O)C1CCN(c2ncnc3c2nnn3Cc2ccccc2Cl)CC1
    i	-0.61
CCOc1ccc2oc(C(=O)N(Cc3nnc(-c4ccccc4Cl)o3)C3CC3)c(C)c2c1
    i	0.3
Cc1ccc(NC(=O)COc2ccccc2C(=O)NCCc2ccccc2)cc1
    i	0.5

Next part:
SMILES | KCNQ2 block | KCNQ2 block baseline
COc1ccc(N2CCN(C(=O)Nc3cccc(C(F)(F)F)c3)CC2)cc1 | i | -0.69
Nc1sc(-c2ccccc2)n[n+]1Cc1cccc2cccnc12 | i | 0.96
CC1(C(=O)N2CC3(CC(c4cccc([N+](=O)[O-])c4)=NO3)C[C@H]2C(=O)NCC(N)=O)CC1 (some centres not stated) | i | -0.67
CCOc1ccccc1N1CCN(C(=O)c2ccccc2)CC1 | i | 2.1
COc1ccc(CCNC(=O)CCCOc2cc(=O)n(C)c3ccccc23)cc1OC | i | -1.7
O=C(CN1C(=O)NC2(CCc3ccccc32)C1=O)c1ccc(Br)cc1 (configuration not stated) | i | -0.06
CCOC(=O)c1ccc(NC(=O)COc2ccc(S(=O)(=O)N3CCCC3)cc2)cc1 | i | -0.39
CCn1c(SCC(=O)Nc2nc(C)cs2)nnc1C(NC(=O)c1ccccc1Cl)C(C)C (configuration not stated) | i | 0.91
CCCn1cc(SCC(=O)Nc2ccc3c(c2)OCO3)c2ccccc21 | i | 0.25
O=C(CSc1nnc(-c2cnccn2)n1Cc1ccco1)c1ccc2ccccc2c1 | i | -0.62
Cc1cccc(-n2nnnc2SCc2csc(-c3ccccc3)n2)c1 | -7.2* | -0.98*
O=C(Nc1ccccc1F)c1ccc(COc2ccc(Cl)cc2Cl)o1 | i | 0.05

Quoted at random: three entries already listed.
SMILES | KCNQ2 block | KCNQ2 block baseline
O=C(c1ccccc1F)N(NC(=O)C(O)(c1ccccc1)c1ccccc1)c1ccccc1 | i | 1.3
CCN1C(=O)CSc2ccc(C(=O)NCc3ccccc3)cc21 | i | 1.7
O=C(NCc1cccc(Cl)c1)C1CCC(=O)N(CC2CCCCC2)C1 (configuration not stated) | i | 0.36

Continued.
SMILES | KCNQ2 block | KCNQ2 block baseline
Cc1nc2nc(SCC(=O)NCc3ccco3)nn2c(C)c1Cc1ccccc1 | i | -1.2
CC(C)[C@H](NC(=O)c1ccccc1Cl)C(=O)OCc1cc([N+](=O)[O-])cc2c1OCOC2 | i | -0.3
COc1ccc(CN(C)CC(=O)Nc2ccccc2C(F)(F)F)cc1 | i | -1.4
CN(CCOCCOc1ccc2ccccc2c1)Cc1ccccc1 | i | 0.03
COc1cc(C)c(Cl)cc1S(=O)(=O)NCCN1CCOCC1 | i | -0.12
CCn1nc(C)c(/C=N/NC(=O)Cn2nccc2C)c1C | i | 1.4
c1ccc(C(c2c[nH]c3ccccc23)c2c[nH]c3ccccc23)nc1 | i | 0.03
COC(=O)c1ccc(CSCc2ccc(C(=O)OC)o2)o1 | i | -0.02
COc1ccc(Cc2nnc(SCC(=O)c3ccc4c(c3)OCO4)o2)cc1 | i | -1.1
Cc1ccc(NC(=O)CN2C(=O)S/C(=C\c3cccn3-c3cccc(C(=O)O)c3)C2=O)c(C)c1 | i | 0.67
Cn1nnnc1SCSc1nnnn1C | i | -0.67
COc1ccccc1NC(=O)c1cc(Cl)nc2ccccc12 | i | 1.4
Cc1ccc(NC(=O)C2(c3cccs3)CCOCC2)cc1C | i | 1.1
COCCNC(=O)/C(C#N)=C/c1c(F)cccc1Cl | i | 0.2
O=C(CNS(=O)(=O)c1ccc(F)c(Cl)c1)N1CCCCCC1 | i | -0.9
Cc1cccc(NC(=S)N(CCCN2CCOCC2)C(C)c2cc3ccccc3o2)c1 (configuration not stated) | i | 0.89
CCN(CC)C(=O)CSCc1cnn(-c2ccccc2)c1-n1cccc1 | i | 1.3
O=C(c1ccco1)N(Cc1cccc(F)c1)C1CCS(=O)(=O)C1 (configuration not stated) | i | -2.3
Cc1ccc(C)c(Nc2nc3ccc(C)cc3n3cnnc23)c1 | i | 1.9
Cn1cccc1C(=O)OCC(=O)NC(=O)NC1CCCCC1 | i | 0.42
Cc1cc(=O)n2[nH]c(C)c(-c3ccccc3)c2n1 | i | 0.45
O=C(NCc1ccco1)C1CCN(c2ccc(S(=O)(=O)N3CCOCC3)cc2[N+](=O)[O-])CC1 | i | 1.8
N#CCC(=O)Nc1ccc(C(=O)OCC(=O)c2ccc3c(c2)OCCO3)cc1 | i | -0.56
COc1cccc(NC(=O)CN(C)C(=O)CN2C(=O)c3ccc([N+](=O)[O-])cc3C2=O)c1 | i | 1.8
CC(=O)Nc1ccc(NC(=O)CC(C)n2ccnc2)cc1 (configuration not stated) | i | 2.9
CC(=O)c1ccc(OCC(O)CN(C)Cc2cccs2)cc1 (configuration not stated) | i | 2.1
CCOC(=O)c1c(NC(=O)CN2CCC(C)CC2)sc(C)c1C | i | 0.7

The list is partial; the hit share may differ from the screen's.
